VDR inh = vitamin D3 receptor (human) inhibition; P11473; AID 504847; Potency, µM, inactives show max response, negative = inhibition, hits mostly inhibitors; VDR-SRC2-3 peptide fluorescence polarization, 2 h; actives 0.93% (n = 400,000); active = well fitted inhibition curve with a large enough effect; inconclusive = small, poorly fitted or top-dose-only effect, or another doubt; inactive = no such curve, though single readings can be large or run the other way; note: series mostly up to about 120 µM
Target sequence (P11473 whole entry, looked up): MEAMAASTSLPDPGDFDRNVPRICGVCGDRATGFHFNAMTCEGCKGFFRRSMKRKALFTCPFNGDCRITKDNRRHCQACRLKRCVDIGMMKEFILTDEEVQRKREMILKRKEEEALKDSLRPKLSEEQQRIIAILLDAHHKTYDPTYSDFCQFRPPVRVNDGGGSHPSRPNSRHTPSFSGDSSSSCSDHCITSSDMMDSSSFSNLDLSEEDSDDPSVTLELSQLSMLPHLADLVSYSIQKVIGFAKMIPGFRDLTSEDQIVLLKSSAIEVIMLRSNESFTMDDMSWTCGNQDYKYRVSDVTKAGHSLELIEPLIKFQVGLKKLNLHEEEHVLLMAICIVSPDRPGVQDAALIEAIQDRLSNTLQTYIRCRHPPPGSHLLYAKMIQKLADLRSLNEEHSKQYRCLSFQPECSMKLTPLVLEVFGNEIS
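Compounds are added to VDR with labelled SRC2-3 coactivator peptide and held 2 h at room temperature. Inhibition of the VDR–peptide interaction is then read as a change in fluorescence polarization.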
The depositor's hits bear a star; ? = inconclusive; & = joins results of further samples; [ ] = remark or other dose. % is set by controls: 0 for no effect and ±100 for the full control effect; potency is the fitted concentration of half-maximal effect. These rows are one share of the data; rates above refer to the full screens.

SMILES	VDR inh
CC1CCC(C(=O)NC(C(=O)OCC(=O)c2ccc(Br)cc2)C(C)C)CC1 (stereo unspecified)	-19.2%
COc1cc(C(=O)N2CCN(CC(O)COc3ccccc3)CC2)cc(OC)c1OC (stereo unspecified)	-10.4%
Oc1oc(-c2ccco2)nc1C=Nc1ccccc1	13.2%
CCc1ccc2[nH]c(=O)c(CN(CCN(CC)CC)C(=S)NCc3ccco3)cc2c1	11.3%
COCCN(CCOC)S(=O)(=O)c1ccc(C(=O)Nc2nnc(CSC)o2)cc1	-20.2%
C/C(=N/NC(=O)NC12CC3CC(CC(C3)C1)C2)c1ccccc1	12.4%
CC(C)C[C@@H](CC(=O)N[C@@H](CCC(=O)O)CC(=O)O)NC(=O)[C@@H]1CCCC[C@H]1NC(=O)C[C@H](CCCN)NC(=O)C[C@H](CO)NC(=O)[C@@H]1CCCC[C@H]1N	11.9%
CCCCN(CC)Cc1ccc(CNC(=S)Nc2ccc(C)cc2Cl)o1	11.7%
Cc1oc(C(=O)O)cc1COc1ccc2c3c(c(=O)oc2c1C)CCC3	14.4%
O=C(NCc1ccccc1)c1ccccc1CO	13.4%
CCc1ccc2[nH]c(=O)c(CN(Cc3ccccc3)Cc3nnnn3Cc3ccco3)cc2c1	5.2%
COc1cccc(/C=N/NC(=O)c2[nH]nc3c2CCc2ccccc2-3)c1	10.5%
CC(=O)Oc1ccc(C(=O)Nc2nnc(C)s2)cc1	0.6%
COC(=O)C1=C(\O)CCCC/C=C\1C(=O)O	-16.0%
COc1cc2c(oc(=O)c3cc(C)cc(OC)c32)c2c(C3OC(C)C(O)C(C)(O)C3O)ccc(O)c12 (stereo unspecified)	-23.4%
Cc1ccc(NC(=O)C2CCCN(S(=O)(=O)c3cccc4cccnc34)C2)c(Br)c1 (stereo unspecified)	9.9%
CCOc1cc(-c2nc(-c3ccc(C)nc3OC)no2)cc(OCC)c1OCC	-9.7%
NC(=O)[C@@H]1CCOc2c(I)cc([N+](=O)[O-])cc2C(=O)N[C@@H](CO)C(=O)NCC(=O)N1	1.2%
CCOC(=O)c1sc(NNC(=O)c2ccc(F)cc2)nc1C	3.1%
COc1cc(C(c2c(C)[nH][nH]c2=O)c2c(C)[nH][nH]c2=O)ccc1OC(=O)c1ccccc1OC	?
C/C(=N\Nc1cc(N2CCOCC2)ncn1)c1cccc([N+](=O)[O-])c1	-6.4%
CCCN1CNc2c(c(=O)[nH]c(=S)n2Cc2ccc(OC)c(OC)c2)C1	7.8%
COc1ccc(C(=O)Nc2cccc(C)c2)cc1	4.9%
O=C1CCCCC1Nc1ccc2ccccc2c1 (stereo unspecified)	27.9%
CCC1(C(=O)NC(=Nc2ccccc2)Nc2ccccc2)CCOC1=O (stereo unspecified)	1.8%
SMILES	VDR inh
CCCOc1ccc(C(=O)Nc2ccc(S(=O)(=O)Nc3onc(C)c3C)cc2)cc1	-5.1%
CCC(CC)C(=O)Nc1cccc(/C(C)=N/NC(=O)c2c(Br)cnn2C)c1	1.0%
O=C(N/N=C/c1ccccc1Br)c1cccc(S(=O)(=O)N2CCOCC2)c1	55.0%[activator]
CCN(CC)CCN(C(=O)c1ccco1)c1nc2ccc(F)cc2s1	10.9%
COc1cccc(C(=O)NCC2CCCN(C3CCCCC3)C2)c1OC (stereo unspecified)	4.4%
CCOC(=O)[C@H]1[C@H]2COc3ccccc3[C@@H]2N2C(=O)c3c(C)cc(C)cc3NC(=O)[C@@]12C	1.9%
Cc1nc2ccccc2nc1OCC(=O)NCc1ccc2c(c1)OCO2	-10.7%
COc1ccccc1Cn1c(=S)[nH]c2ccc(F)cc2c1=O	4.1%
O=C(CC1C(=O)NCCN1Cc1cccc(F)c1)NC1CCCCC1 (stereo unspecified)	-12.4%
O=C1C(=O)N(C2CCS(=O)(=O)C2)C(c2cccc(O)c2)/C1=C(/O)c1ccc(Cl)cc1 (stereo unspecified)	1.4%
O=C(CN1C(=O)S/C(=C\c2ccccn2)C1=O)Nc1ccc(F)cc1	6.7%
COc1ccc(C(C(=O)NC2CCCCC2)N(C(=O)c2ccco2)c2ccccc2OC)cc1 (stereo unspecified)	-2.6%
N=c1oc2ccc3ccccc3c2cc1C(N)=S	-21.9%
COCCN(CC(=O)Nc1cccc(C)c1C)C(=O)c1ccc2ccccc2n1	-19.2%
CCc1ccc(CC)c(S(=O)(=O)Nc2ccc(C(=O)O)c(O)c2)c1	-19.4%
CC(C)c1ccc(C(=O)N2CCCN(C(=O)c3ccc(C(C)C)cc3)CC2)cc1	-8.3%
COc1cccc(NC(=O)CSc2nnc(COc3ccc4c(c3)CCCC4)o2)c1	2.3%
CS(=O)(=O)c1ccc(Cl)c(NC(=O)Nc2ccccc2)c1	?
Cn1c(C(=O)N[C@@H](C(=O)O)c2ccccc2)cc2cc(Cl)ccc21	?
CC(=O)c1cc(C(=O)c2ccccc2)sc1Nc1ccccc1	-25.7%
CCOC(=O)c1cnc(Nc2ccccc2)nc1C(F)(F)F	5.8%
Cc1ccc(CNC(=O)CCS(=O)(=O)c2ccc3c(c2)CC(C)N3C(=O)C2CC2)o1 (stereo unspecified)	-14.0%
O=C(c1ccco1)N1N=C(C2CCCCC2)CC1(O)C(F)(F)F (stereo unspecified)	-14.6%
CCOC(=O)C1CCN(C(=O)c2ccc(Br)o2)CC1	11.4%
Cc1ccc2c(c1)[C@H]1[C@H](CO2)[C@H](c2ccccc2)[C@]2(C)C(=O)Nc3cc(F)ccc3C(=O)N12	-15.2%
SMILES	VDR inh
CCCCSc1nc2c(c(=O)[nH]c(=O)n2C)n1CCc1ccccc1	-18.2%
Cc1noc(C)c1C(=O)OCC(=O)Nc1c(F)cccc1F	50.1µM*
O=C(CSc1nnc(COc2ccc(Cl)cc2)n1Cc1ccco1)c1ccccc1F	3.9%
O=C(c1ccccc1Nc1ccc(SC(F)F)cc1)N1CCCCC1	-0.9%
Cc1ccc(NC(=O)CN2CCN(C)CC2)cc1S(=O)(=O)N1CCOCC1	-12.7%
O=C(OCC(=O)N1CCN(C(=O)c2ccco2)CC1)c1cc(F)c(F)cc1Cl	0.6%
CC1CN(C(=O)C(C)Sc2nnnn2C)CC(C)O1 (stereo unspecified)	5.4%
O=C(COC(=O)c1ccccn1)NC1CCCCC1	-12.2%
COc1ccc(NC(=O)CCNC(=O)c2ccccc2)cc1S(N)(=O)=O	23.7%
Cc1ccccc1N1CC(O)(c2ccccc2)[N+]2=C1SCC2 (stereo unspecified)	-14.6%
CN(c1ccccc1)S(=O)(=O)c1cccc(NC(=O)Cn2cnc3ccccc3c2=O)c1	7.3%
COCC1CCCCN1C(=O)c1ccc(OC2CCN(CCc3ccccc3)CC2)cc1 (stereo unspecified)	-4.8%
CS(=O)(=O)c1ccccc1-c1nnc(NC(=O)Cc2ccccc2)o1	11.5%
CCc1[nH]nc2c1C(c1ccsc1)C(C#N)=C(N)O2 (stereo unspecified)	10.9%
CC(=O)c1ccc(Nc2nc(-c3ccccc3)nc3ccccc23)cc1	-16.1%
OC(CN=c1sc2ccccc2n1CC(O)COc1ccccc1)COc1ccccc1 (stereo unspecified)	5.4%
COc1ccc(C(=O)NCC(=O)NCC2COc3ccccc3O2)cc1 (stereo unspecified)	8.9%
Cc1ccc2c(C)c(C(=O)Nc3cccnc3)oc2c1	-4.6%
Cc1ccc(C)c2[nH]c(=O)c(CN(Cc3ccco3)C(=S)NCC3CCCO3)cc12 (stereo unspecified)	-4.6%
O=C(CCc1ccccc1)NCC1(c2ccccc2)CCCC1	7.0%
O=C(/C=C\Nc1ccc2c(c1)OCO2)c1cccs1	-13.6%
CCN(CC(=O)Nc1ccccc1OC)C(=O)c1ccc(NS(=O)(=O)c2ccc(C(C)=O)cc2)cc1	21.7%
CCOC(=O)NNC(=O)C1CCC(C)CC1 (stereo unspecified)	3.3%&-3.6%
COC(=O)CC[C@@H](C)[C@H]1CC[C@H]2[C@@H]3CC[C@@H]4C[C@H](O)CC[C@]4(C)[C@H]3C[C@H](O)[C@]12C	-8.0%
O=C(CNC(=O)c1ccc(S(=O)(=O)N2CCCC2)cc1)N/N=C/c1ccc(F)cc1	-8.6%

Reformatted bar-delimited: part of the list above
Structure | VDR inh
CC(=O)c1ccc(Nc2nc(-c3ccccc3)nc3ccccc23)cc1 | -16.1%
COC(=O)CC[C@@H](C)[C@H]1CC[C@H]2[C@@H]3CC[C@@H]4C[C@H](O)CC[C@]4(C)[C@H]3C[C@H](O)[C@]12C | -8.0%
O=C(OCC(=O)N1CCN(C(=O)c2ccco2)CC1)c1cc(F)c(F)cc1Cl | 0.6%

(next part)
SMILES	VDR inh
O=C(NCc1nc2ccccc2[nH]1)c1ccccc1F	3.6%
O=C(CCCCn1c(=O)c2ccccc2n(Cc2cccc(Cl)c2)c1=O)NCc1ccc2c(c1)OCO2	5.0%
O=C1CCC(C(=O)N2CCc3c(Cl)cccc3C2)CN1CCCN1CCOCC1 (stereo unspecified)	-4.1%
O=C(O)c1ccc(C(=O)Nc2ccc(F)cc2)cc1	-5.0%
O=C(O)c1cc(-c2ccccc2)on1	-0.8%
Cc1ccnc(SCc2nc3ccccc3s2)n1	18.5%
COc1ccc(/C=C(\C#N)C(=O)NCC2CCCO2)cc1OC (stereo unspecified)	15.1%
O=C(/C=C(\O)c1ccc(Cl)cc1)C(=O)NNC(=O)C(O)(c1ccccc1)c1ccccc1	-9.8%
Cc1ncc(CN2CCC(CO)(Cc3ccccc3)CC2)s1	-26.8%
CCOC(=O)c1c(-c2ccccc2)nc2ccc(C)cn12	-0.1%
CCN1CCN(CCCNC(=O)C(=O)c2c(C)[nH]c3ccccc23)CC1	1.5%
O=C(Nc1ccc(O)cc1)/C(=C\C=C\c1ccccc1)NC(=O)c1ccccc1	-18.1%
COc1ccc(-n2c(=O)c(C)nc3cncnc32)cc1	-0.4%
CCc1nnc(NC(=O)C(CC)CC)s1	0.5%
N#CCCn1c(=O)cnc2cnc(Oc3ccccc3)nc21	2.4%
Cc1ccc(-c2onc(C)c2C)cc1S(=O)(=O)NC1CCC(C)CC1 (stereo unspecified)	11.1%
Cc1ccc(C(=O)NC(=S)Nc2cccc3c(C)cc(C)nc23)cc1	-9.1%
CC(=O)Nc1ccc(NC(=O)c2csnn2)cc1	11.0%
Fc1ccc(-n2c(-c3ccc4ccccc4n3)n[nH]c2=S)cc1Cl	-14.4%
CCOc1cc(N2CCOCC2)c(OCC)cc1NC(=O)COC(=O)c1ccc(Cl)cc1N	-17.6%
CC(C)Oc1ccc(C(=O)NC2=NCCS2)cc1	79.4µM*
CCN(CC)C(=O)[C@H]1C[C@H](CC(=O)NCCN2CCOCC2)C(=O)N2CCc3c([nH]c4ccc(Cl)cc34)[C@]12C	-8.1%
O=C1/C(=C\c2ccccc2)CCc2c1[nH]c1ccccc21	3.0%
Cc1cc(C(=O)N/N=C/c2ccc(OCc3ccccc3)cc2)c(C)o1	3.9%
COc1cccc(NC(=O)COC(=O)c2ccc3c(c2)OCO3)c1	-19.1%

Random excerpt: four compounds from above.
SMILES	VDR inh
CC(C)Oc1ccc(C(=O)NC2=NCCS2)cc1	79.4µM*
Cc1ccnc(SCc2nc3ccccc3s2)n1	18.5%
O=C(O)c1cc(-c2ccccc2)on1	-0.8%
COc1ccc(-n2c(=O)c(C)nc3cncnc32)cc1	-0.4%

Other results follow.
SMILES	VDR inh
COc1ccc(-n2ncc(C(=O)N3CCc4ccccc4C3)c2C2CCN(C(=O)OC(C)(C)C)CC2)cc1	-1.8%
C=CCSc1ncc(CO)n1Cc1ccccc1	1.1%
C/C(=N/OC(=O)c1c(-c2c(F)cccc2Cl)noc1C)c1cnccn1	3.7%
CCn1nnc(NC(=O)COc2cc(C)ccc2C(C)C)n1	-0.8%
COc1ccc(CCNC(=O)CNS(=O)(=O)c2ccc(Cl)cc2)cc1	-14.9%
COc1ccccc1N(CC(=O)NCCSCc1cccc(Cl)c1)S(C)(=O)=O	6.7%&-13.2%
COc1ccc(C(=O)NN(C)c2nc(-c3ccccc3)nnc2C(F)(F)F)cc1	-4.8%
Cc1nn(C)c(C(=O)Nc2ccc3c(c2)OCO3)c1[N+](=O)[O-]	22.6%
CN(C)S(=O)(=O)c1ccc2nc(NC(=O)c3cccnc3)sc2c1	9.0%
CCOC(=O)C1CCCN1C(=O)c1ccc(OC)c(Br)c1 (stereo unspecified)	2.4%
O=C(COc1ccc(S(=O)(=O)N2CCOCC2)cc1)Nc1cccc([N+](=O)[O-])c1	-8.2%
CON(C)S(=O)(=O)NC(=O)C1=C(N2CCCC2)COC1=O	1.4%
COc1ccc2[nH]c3c(NCCCOC(C)C)ncnc3c2c1	-6.9%
O=C(C[C@@H]1C/C=C\CCC(=O)OC[C@@H]2CCCN2C1=O)N[C@H](CO)Cc1ccccc1	5.3%
CCCC[C@@H]1CNC(=S)N1CCCC	8.1%
CC1(c2cccc(Br)c2)NC(=O)N(CC(=O)Nc2cccnc2Cl)C1=O (stereo unspecified)	-5.2%
Cc1cc(-n2c(C)cc(C(=O)COc3ccccc3[N+](=O)[O-])c2C)no1	-1.9%
CC(=O)OC[C@H]1O[C@@H](Oc2cc(O)cc3oc(-c4ccc(O)cc4)cc(=O)c23)[C@H](O[C@@H]2O[C@@H](C)[C@H](O)[C@@H](O)[C@H]2O)[C@@H](O)[C@@H]1O	-2.3%
CC1Oc2ccccc2OC1C(=O)Nc1nccs1 (stereo unspecified)	-9.7%
CCOc1ccc(S(=O)(=O)Nc2cccc(C(=O)NCC(C)(C)N3CCOCC3)c2)cc1	25.2%
COc1cc(C2CC(=O)Oc3cc(C)c(Cl)cc32)cc(OC)c1OC (stereo unspecified)	-3.8%

Not a retest: an excerpt of the list.
SMILES	VDR inh
CC1CCC(C(=O)NC(C(=O)OCC(=O)c2ccc(Br)cc2)C(C)C)CC1 (stereo unspecified)	-19.2%
COc1cc(C(=O)N2CCN(CC(O)COc3ccccc3)CC2)cc(OC)c1OC (stereo unspecified)	-10.4%
Oc1oc(-c2ccco2)nc1C=Nc1ccccc1	13.2%
CCc1ccc2[nH]c(=O)c(CN(CCN(CC)CC)C(=S)NCc3ccco3)cc2c1	11.3%
COCCN(CCOC)S(=O)(=O)c1ccc(C(=O)Nc2nnc(CSC)o2)cc1	-20.2%
